Bioassay records as filed in PubChem.
PINK1 expr mod: modulators of PINK1 expression. Potency, µM (highest dose often 76.6 µM), without a hit: top-dose activation (PINK1 increase), actives largely listed as activators. 410,000 compounds, 0.2% hits. PINK1 immunofluorescence, high-content cytometry, 24 h; active = well fitted activation curve with a large enough effect; inconclusive = small, poorly fitted or top-dose-only effect; inactive = flat fitted curve, though single readings scatter; cell line not stated here;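 also: potency is read from the fitted curve at half-maximal effect; % of control where 0% means no effect; nearly all actives have a fitted effect of over 65% in size; a mitochondrial uncoupler was the plate control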
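Compound titrations (5 concentrations, 24 h) on a stable cell line; DMSO and CCCP controls. Endpoint: fixed-cell PINK1 immunofluorescence with mitochondrial, cell and nuclear markers, scanned by microplate cytometer.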
D2 agonist: human D2 receptor agonism in beta-arrestin assay; P14416; DiscoveRx PathHunter D2 beta-arrestin, luminescence, 90 min; 100% = 57 uM dopamine signal; activation, % (test concentration not listed); 360,000 compounds, 0.084% hits; in the data active = activation above about 40%; inconclusive = about 15% to 40%; inactive = below about 15%; also: compound concentration not given in the record; the text of the record calls up to 30% inactive
Target sequence (P14416 whole entry, looked up): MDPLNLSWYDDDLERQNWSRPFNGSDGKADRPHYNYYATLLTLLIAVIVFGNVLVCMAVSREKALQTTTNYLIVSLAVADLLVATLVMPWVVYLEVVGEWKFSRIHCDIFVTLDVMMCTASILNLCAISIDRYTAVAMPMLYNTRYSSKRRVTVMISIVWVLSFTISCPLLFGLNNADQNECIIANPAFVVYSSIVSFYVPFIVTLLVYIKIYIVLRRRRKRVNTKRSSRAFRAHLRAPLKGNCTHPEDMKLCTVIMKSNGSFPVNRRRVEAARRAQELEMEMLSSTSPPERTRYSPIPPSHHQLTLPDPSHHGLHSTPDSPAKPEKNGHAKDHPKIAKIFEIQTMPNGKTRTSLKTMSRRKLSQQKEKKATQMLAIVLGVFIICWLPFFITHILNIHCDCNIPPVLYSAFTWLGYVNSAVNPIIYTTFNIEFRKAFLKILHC
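Agonist mode: compounds alone added to overnight-plated D2 PathHunter cells for 90 min at 37 C, with 57 uM final dopamine (EC100) defining full response. Beta-arrestin recruitment detected by chemiluminescent reagent, read after 1 h at ambient temperature.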
TRPML1 ag: activates the human TRPML1 channel. activation, % (concentration not given with the values). TRPML1-expressing cells, Ca2+ dye fluorescence, FDSS; host cell line not named in the record; reference of the full effect not given here. 410,000 compounds, 0.12% hits. Q9GZU1; in the data active = activation above about 50%; inconclusive = about 30% to 50%; inactive = below about 30%; also: 0% is about no effect; the text of the record puts the active cut at 80%
Target sequence (Q9GZU1 whole entry, looked up): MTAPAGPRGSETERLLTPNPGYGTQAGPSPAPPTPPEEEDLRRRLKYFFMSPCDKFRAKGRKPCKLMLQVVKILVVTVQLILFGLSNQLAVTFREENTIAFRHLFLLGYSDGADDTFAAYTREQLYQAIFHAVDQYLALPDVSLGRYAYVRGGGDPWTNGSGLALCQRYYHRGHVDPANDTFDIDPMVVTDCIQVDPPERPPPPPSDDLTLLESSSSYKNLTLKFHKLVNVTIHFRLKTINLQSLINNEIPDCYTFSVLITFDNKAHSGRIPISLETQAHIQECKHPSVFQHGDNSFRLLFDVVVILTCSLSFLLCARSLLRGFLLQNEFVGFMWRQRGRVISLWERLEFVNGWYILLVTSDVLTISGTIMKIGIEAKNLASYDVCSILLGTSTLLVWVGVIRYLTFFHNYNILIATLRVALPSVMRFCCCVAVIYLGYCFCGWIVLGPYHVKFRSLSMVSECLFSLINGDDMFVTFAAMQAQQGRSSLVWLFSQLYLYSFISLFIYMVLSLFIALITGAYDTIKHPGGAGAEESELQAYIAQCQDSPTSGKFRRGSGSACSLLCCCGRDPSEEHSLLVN
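Calcium fluorescence on an FDSS kinetic reader gave the read-out. Tet-induced TRPML1-DL cells were plated overnight, dye-loaded (Ca8 with quencher, 45-90 min, room temperature, dark), then read 110 s after compound addition, and again 110 s after 4uM final 54-4 (EC80).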
CtBP-E1A inh: blocks the CtBP interaction with E1A; AlphaScreen GST-E1A/His-CtBP binding, 1536-well; stronger effect = lower value; control for the full effect not named in the record; activity change, % (no concentration beside the values); 340,000 compounds, 0.49% hits; AID 651724; in the data active means activity change below about -65%; inconclusive means about -30% to -65%; inactive means above about -30%; also: % is scaled to controls: 0 for no effect and ±100 for the full control effect
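In 5 uL wells, 23 nL compound meets equimolar GST-E1A and His-CtBP (5X stock 125 nM each) for 2 h, 37 °C. Beads (5X, 50 ug/mL) then 1 h, 37 °C, dark.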
TRPML1 blocker: blocks the human TRPML1 channel; TRPML1-inducible cells, Ca2+ dye fluorescence, FDSS; stronger effect = lower value; inhibition of EC80 agonist-evoked calcium signal; Q9GZU1; activity change, negative = inhibition, % (test concentration not listed); 390,000 compounds, 0.02% hits; in the data active means activity change below about -50%; inconclusive means about -30% to -50%; inactive means above about -30%;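 also: stimulus is agonist 54-4 at its EC80 concentration; % is scaled to controls: 0 for no effect and ±100 for the full control effect; compound concentration not given in the record; the text of the record puts the active cut at -80%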
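Calcium fluorescence in TRPML1-DL cells induced overnight with Tet: a 110 s read after compound pin addition, then a 110 s antagonist read after challenge with 54-4 at 4 uM final (EC80).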
Six1-Eya2 blk: Six1/Eya2 interaction inhibition. Q15475+O00167. AlphaScreen GST-Six1/His-Eya2 binding, biochemical; stronger effect = lower value; control for the full effect not named in the record. 360,000 compounds, 0.56% hits. AID 651725. activity change, % (test concentration not listed); in the data active = activity change below about -65%; inconclusive = about -30% to -65%; inactive = above about -30%; also: % is scaled to controls: 0 for no effect and ±100 for the full control effect
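Homogeneous AlphaScreen proximity assay pairing GST-Six1 with His-tagged Eya2 (added as 5X mix: 250 nM and 500 nM) in 50 mM Tris pH 8.0, 300 mM NaCl, 1 mM TCEP. Glutathione donor and nickel acceptor beads; 1 h, 37 °C, dark.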
* hit, by the source's call; [ ] = remark or other dose.

For Cc1ccc(-c2[nH]c(=O)n3ccncc23)s1 the results were PINK1 expr mod -0.1%, D2 agonist 6.9, TRPML1 ag 2.1, CtBP-E1A inh -19, TRPML1 blocker -10 and Six1-Eya2 blk inconclusive.
For COc1ccc(C2=NCCn3nc4cc([N+](=O)[O-])ccc4c32)cc1 the results were PINK1 expr mod 4.2%, D2 agonist -1.3, TRPML1 ag -0.5, CtBP-E1A inh -16, TRPML1 blocker 7 and Six1-Eya2 blk -11.
COc1ccc(C(=O)/C=C(\C)Nc2ccc(NC(C)=O)cc2)cc1 was read as D2 agonist -1.2, TRPML1 ag 1.0, CtBP-E1A inh 3, TRPML1 blocker 3 and Six1-Eya2 blk -5.
Screening CSCCC(NS(=O)(=O)c1ccc(C)cc1)C(=O)N1CCN(S(=O)(=O)c2ccc(F)cc2)CC1 (stereo not given) returned PINK1 expr mod -0.9%, D2 agonist -1.4, TRPML1 ag 0.1, CtBP-E1A inh -19, TRPML1 blocker 15 and Six1-Eya2 blk -5.
`CCc1ccc(NC(=O)CSCCO)cc1` gave PINK1 expr mod -4.7%, D2 agonist 1.0, TRPML1 ag -0.6, CtBP-E1A inh 17, TRPML1 blocker -4 and Six1-Eya2 blk 7.
COc1ccc(C)cc1Nc1nc(-c2c[nH]c3ccccc23)cs1 was read as PINK1 expr mod 1.0%, D2 agonist -9.1, TRPML1 ag 0.6, CtBP-E1A inh -15, TRPML1 blocker 1 and Six1-Eya2 blk 10.
CNC(=O)C1CN(C(=O)c2cccc(S(=O)(=O)N3c4ccccc4CC3C)c2)c2ccccc2O1 (stereo not given) was read as PINK1 expr mod -1.1%, D2 agonist -0.8, TRPML1 ag -0.8, TRPML1 blocker 26 and Six1-Eya2 blk -3.
Screening CS(=O)(=O)N(CC(=O)Nc1cccnc1)c1ccc2c(c1)OCO2 returned PINK1 expr mod 8.5%[38.3 µM], D2 agonist -3.2, TRPML1 ag 0.4, CtBP-E1A inh 9, TRPML1 blocker -8 and Six1-Eya2 blk 5.
Screening COc1ccc(S(=O)(=O)N2CCOCC2)cc1NC(=O)COC(=O)CCOc1ccc(C)cc1 returned PINK1 expr mod 0.1%, D2 agonist -1.5, TRPML1 ag -0.1, CtBP-E1A inh -19, TRPML1 blocker 5 and Six1-Eya2 blk -6.
For COC(=O)c1ccccc1NC(=O)c1ccccc1OC the results were PINK1 expr mod 3.3%, D2 agonist -7.2, TRPML1 ag 2.0, CtBP-E1A inh 15, TRPML1 blocker 27 and Six1-Eya2 blk 11.
For O=C(NCCCCNC(=O)c1cccnc1Cl)c1cccnc1Cl the results were PINK1 expr mod -0.4%, D2 agonist 0.8, TRPML1 ag 0.4, CtBP-E1A inh -17, TRPML1 blocker 11 and Six1-Eya2 blk 4.
`O=S(=O)(c1cnccc1N1CCN(CCO)CC1)N1CCCC1` gave PINK1 expr mod -0.2%, D2 agonist -6.2, TRPML1 ag 0.2, CtBP-E1A inh -3, TRPML1 blocker -4 and Six1-Eya2 blk 7.

Copied from above (two entries):
For COc1ccc(C2=NCCn3nc4cc([N+](=O)[O-])ccc4c32)cc1 the results were PINK1 expr mod 4.2%, D2 agonist -1.3, TRPML1 ag -0.5, CtBP-E1A inh -16, TRPML1 blocker 7 and Six1-Eya2 blk -11.
COc1ccc(C(=O)/C=C(\C)Nc2ccc(NC(C)=O)cc2)cc1 was read as D2 agonist -1.2, TRPML1 ag 1.0, CtBP-E1A inh 3, TRPML1 blocker 3 and Six1-Eya2 blk -5.

Additional structures.
Screening O=C(NCc1ccccc1)c1ccc2oc(=O)n(Cc3ccccc3)c2c1 returned PINK1 expr mod -0.7%, TRPML1 ag 1.1 and TRPML1 blocker -13.
`CCc1ccccc1NC(=O)Cn1cc(C(=O)c2ccncc2)c(=O)c2cc(C)ccc21` gave PINK1 expr mod 1.0%, TRPML1 ag -0.2 and TRPML1 blocker 6.
`COc1ccc(S(=O)(=O)N2c3ccc(F)cc3CCC2C)cc1` (stereo not given) gave PINK1 expr mod 3.7%, D2 agonist -0.6, TRPML1 ag 2.5, TRPML1 blocker 59 and Six1-Eya2 blk 0.
For CC(C)CNC(=S)N(CCN(C)C)Cc1cc2cc3c(cc2[nH]c1=O)OCO3 the results were PINK1 expr mod 1.5%, D2 agonist 6.5, TRPML1 ag -0.4, CtBP-E1A inh 16, TRPML1 blocker -15 and Six1-Eya2 blk -7.
Cc1ccc(S(=O)(=O)N2CCCOC2CNC(=O)C(=O)NCc2cccs2)cc1 (stereo not given) was read as PINK1 expr mod 5.5%, D2 agonist -0.1, TRPML1 ag -0.8, CtBP-E1A inh 1, TRPML1 blocker 21 and Six1-Eya2 blk -4.
For CC(=NOC(=O)c1ccc(I)cc1)c1nccs1 the results were PINK1 expr mod 6.3%, D2 agonist -6.4, TRPML1 ag -0.2, CtBP-E1A inh -7, TRPML1 blocker 5 and Six1-Eya2 blk -3.
Screening CCOC(=O)c1sc2nc(CSc3ccccc3)nc(N3CCC(C(N)=O)CC3)c2c1C returned PINK1 expr mod 1.8%, D2 agonist 1.8, TRPML1 ag 0.2, CtBP-E1A inh -22, TRPML1 blocker 68 and Six1-Eya2 blk -12.
COc1ccccc1N1CCN(C(=O)CN2C(=O)COc3ccc(S(=O)(=O)N4CCCC4)cc32)CC1 was read as PINK1 expr mod 2.9%, TRPML1 ag 3.9 and TRPML1 blocker 8.
`O=C(CNC(=O)c1ccccc1)Nc1ccsc1C(=O)O` gave PINK1 expr mod 0.5%, D2 agonist 0.0, TRPML1 ag 0.2, CtBP-E1A inh -3, TRPML1 blocker 6 and Six1-Eya2 blk 1.
`Cc1ccc(NC(=O)c2cccc(N3CCCS3(=O)=O)c2)cc1` gave PINK1 expr mod 0.0%, TRPML1 ag -1.0 and TRPML1 blocker -7.
`Cc1ccc(S(=O)(=O)N2C(=O)CCC2C(=O)Nc2ccc3c(c2)OCCO3)cc1` (stereo not given) gave PINK1 expr mod 3.4%, D2 agonist -3.3, TRPML1 ag 0.0, CtBP-E1A inh 6, TRPML1 blocker -2 and Six1-Eya2 blk -2.
For CC(=O)Nc1cc[n+](C(C)C(=O)c2ccc(Cl)cc2)cc1 (stereo not given) the results were PINK1 expr mod 0.4%, D2 agonist -4.2, TRPML1 ag -0.2, CtBP-E1A inh 2, TRPML1 blocker -4 and Six1-Eya2 blk -2.
`COc1cc(C(=O)N2CCN(c3cccc(C)c3C)CC2)cc(OC)c1OC` gave PINK1 expr mod 5.3%, D2 agonist 6.3, TRPML1 ag 0.8, CtBP-E1A inh 0, TRPML1 blocker 14 and Six1-Eya2 blk -18.
Screening CCOC(=O)c1cnc2nc(N3CCOCC3)nn2c1N returned PINK1 expr mod 15%, D2 agonist -2.5, TRPML1 ag -0.2, CtBP-E1A inh 0, TRPML1 blocker 34 and Six1-Eya2 blk 10.
`COc1ccccc1C1CCN(Cc2cccc(C(=O)N3CCC(O)CC3)c2)CC1` gave PINK1 expr mod 0.9%, D2 agonist -0.4, TRPML1 ag -0.1, TRPML1 blocker 6 and Six1-Eya2 blk 1.
`CC(C)(C)c1ccc(OCCC(=O)OCC(=O)NC2CCCCC2)cc1` gave PINK1 expr mod 5.3%, D2 agonist -0.6, TRPML1 ag 0.3, CtBP-E1A inh -6, TRPML1 blocker 18 and Six1-Eya2 blk 10.
`CN(C(=O)Cn1c(=O)n(Cc2ccc(C(=O)NCc3ccc4c(c3)OCO4)cc2)c(=O)c2ccccc21)c1ccccc1` gave PINK1 expr mod 0.3%, TRPML1 ag 1.1 and TRPML1 blocker -17.
For CCOC(=O)c1cnc2ccc(C(=O)OC)cc2c1NCCc1ccc(OC)c(OC)c1 the results were PINK1 expr mod 5.8%, D2 agonist -2.2, TRPML1 ag 1.3, CtBP-E1A inh 2, TRPML1 blocker 19 and Six1-Eya2 blk -3.
Screening COc1ccc(OC)c(CN(CCN2CCOCC2)S(=O)(=O)c2ccc(NC(C)=O)cc2)c1 returned PINK1 expr mod -0.9%, D2 agonist 4.8, TRPML1 ag -0.2, CtBP-E1A inh -11, TRPML1 blocker -1 and Six1-Eya2 blk 5.
Screening CCn1cc(C(=O)NCCCOC(C)C)c2cc(OC)c(OC)cc2c1=O returned PINK1 expr mod -1.4%, D2 agonist -1.3, TRPML1 ag 1.8, CtBP-E1A inh 0, TRPML1 blocker 7 and Six1-Eya2 blk 0.
For COC(=O)C1(C(=O)OC)C/C=C\CN(S(=O)(=O)c2ccccc2[N+](=O)[O-])CC1 the results were PINK1 expr mod 1.5%, TRPML1 ag -1.3, CtBP-E1A inh 2 and Six1-Eya2 blk -11.
`CCCCOCCCNCC(=O)Nc1ccc(S(N)(=O)=O)cc1` gave PINK1 expr mod 1.1%, D2 agonist 3.9, TRPML1 ag -0.4, CtBP-E1A inh 0, TRPML1 blocker -23 and Six1-Eya2 blk 16.
Screening CC(CCc1ccccc1)NC(=O)Cn1ncc2c3ccccc3n(Cc3ccccc3)c2c1=O (stereo not given) returned PINK1 expr mod 2.9%, TRPML1 ag 2.5 and TRPML1 blocker -5.
`C=Cc1ccc(Cn2c(C(=O)O)c(CNCc3ccc(F)cc3)c3ccc(C)cc32)cc1` gave PINK1 expr mod 1.6%, TRPML1 ag 3.7 and TRPML1 blocker 9.
For Cc1ccc2cc(CN(Cc3ccc(F)cc3)Cc3nnnn3C3CCCC3)c(=O)[nH]c2c1 the results were PINK1 expr mod -0.6%[38.3 µM], D2 agonist -0.1, TRPML1 ag -0.3, CtBP-E1A inh -7, TRPML1 blocker -2 and Six1-Eya2 blk -12.
For Cn1ccnc1SCC(=O)c1cccc(C(F)(F)F)c1 the results were PINK1 expr mod 0.4%, D2 agonist -0.5, TRPML1 ag -0.6, CtBP-E1A inh 5, TRPML1 blocker -16 and Six1-Eya2 blk -1.
`COc1cccc(C(=O)Nc2ccccc2OCc2cc(=O)n3cc(C)ccc3n2)c1` gave PINK1 expr mod 2.5%, TRPML1 ag 0.3 and TRPML1 blocker -6.
Cc1cc(C)n(CCC(=O)N2CCN(S(=O)(=O)c3ccc(C)c(C)c3)CC2)n1 was read as PINK1 expr mod 0.0%, D2 agonist -0.9, TRPML1 ag -0.6, CtBP-E1A inh 24, TRPML1 blocker -4 and Six1-Eya2 blk 8.
For N#Cc1c(-c2ccccc2F)cc(C2CC2)nc1SCC(=O)c1cccs1 the results were PINK1 expr mod 2.5%, D2 agonist -2.1, TRPML1 ag 9.0, CtBP-E1A inh -10, TRPML1 blocker 25 and Six1-Eya2 blk 1.
For Cc1ccc(C(=O)N2CC(=O)Nc3ccccc32)o1 the results were PINK1 expr mod -0.2%, D2 agonist -1.4, TRPML1 ag -0.4, CtBP-E1A inh 17, TRPML1 blocker 2 and Six1-Eya2 blk 1.
For O=C(CN1C(=O)C2CCCCC2C1=O)Nc1cccc([N+](=O)[O-])c1 (stereo not given) the results were PINK1 expr mod 0.1%, D2 agonist -9.7, TRPML1 ag 0.9, CtBP-E1A inh 13, TRPML1 blocker 1 and Six1-Eya2 blk 19.
Screening CC(=O)N1CCN(C(=O)c2cc(S(=O)(=O)N3CCCCC3)ccc2Cl)CC1 returned PINK1 expr mod -6.6%, D2 agonist 2.1, TRPML1 ag 0.3, CtBP-E1A inh 1, TRPML1 blocker -1 and Six1-Eya2 blk 3.
